RE007 growth inh: qHTS Assay for Inhibitors of the HIV-1 protein Vpr | S. pombe RE007 Vpr strain, BacTiter-Glo ATP luminescence, 24 h; control for the full effect not named in the record | Potency, µM (titrated, usually from 92.2 µM), for the others: at the top dose activity change, negative = less growth | 360,000 tested, 0.21% active | AID 651644, 2012; active = well fitted falling curve with a large enough effect; inconclusive = small, poorly fitted or top-dose-only effect; inactive = no such curve, though single readings can be large or run the other way;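 further: on the % scale 0 is the no-effect control and ±100 the full control effect; nearly all actives have a fitted effect of over 50% in size; the assay follows cell death caused by Vpr and the record does not say whether a fall means rescue or toxicity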
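Fission yeast strain RE007, carrying one chromosomally integrated HIV-1 vpr copy, was seeded at OD 0.01 in PMG+AL medium with 23 nL pinned compound. After 24 h at 30 °C and 99% humidity, viability was read by BacTiter-Glo luminescence.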
Cruzain inh noDet: qHTS Assay for Promiscuous and Specific Inhibitors of Cruzain (without detergent); purified cruzain, Z-FR-AMC fluorescence, no detergent; Cruzipain (Trypanosoma cruzi), P25779; AID 1476, 2009; Potency, µM, without a hit: max response, negative = inhibition, hits mostly inhibitors; 200,000 tested, 2.3% active; active means well fitted curve in the direction sought with a large enough effect; inconclusive means small, poorly fitted or top-dose-only effect, or another doubt; inactive means no such curve, though single readings can be large; an effect the other way counts as inactive or inconclusive;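 further: plate controls were enzyme without inhibitor for no effect and buffer without enzyme for full effect; nearly all actives have a fitted effect of over 40% in size; top concentration of the series not given in the record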
Target sequence (P25779 123-467 limits assumed): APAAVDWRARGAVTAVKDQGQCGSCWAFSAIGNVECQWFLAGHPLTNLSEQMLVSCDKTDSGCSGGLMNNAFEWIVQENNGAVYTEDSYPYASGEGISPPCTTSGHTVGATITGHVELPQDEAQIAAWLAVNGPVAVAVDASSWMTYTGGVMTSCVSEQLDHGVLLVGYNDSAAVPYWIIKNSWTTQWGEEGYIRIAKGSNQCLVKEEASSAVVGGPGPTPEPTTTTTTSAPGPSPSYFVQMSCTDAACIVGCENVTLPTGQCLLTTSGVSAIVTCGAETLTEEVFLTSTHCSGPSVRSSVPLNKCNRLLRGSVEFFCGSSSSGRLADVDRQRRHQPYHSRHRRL
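Purified cruzain at 1.5 nM, pre-incubated 15 min with compound at room temperature in 100 mM sodium acetate pH 5.5, 5 mM DTT, 0.00005% Triton X-100. Reaction started with 2 uM Z-FR-AMC; AMC fluorescence increase over 60 s gives rate.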
NS1 function inh: qHTS Assay for Inhibitors of Influenza NS1 Protein Function | S. cerevisiae slowed by influenza A NS1, growth recovery by OD600 | Potency, µM (top dose mostly 46.1 µM), without a hit: top-dose activity, positive = more growth | 270,000 tested, 0.4% active; further: actives are rising curves; nearly all actives have a fitted effect of over 50% in size
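Read-out: OD600 growth recovery of NS1-expressing budding yeast. Cells grown overnight at 30C in -URA glucose medium, washed, resuspended and diluted 1:100 in 2% galactose assay medium, pH 6.0. Same strain lacking NS1 served as positive control.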
Cruzain inh Det: qHTS Assay for Promiscuous and Specific Inhibitors of Cruzain (with detergent). Cruzipain (Trypanosoma cruzi), P25779. purified cruzain, Z-FR-AMC fluorescence, 0.01% Triton. Potency, µM, for the others: max response, negative = inhibition, hits mostly inhibitors. 200,000 tested, 0.43% active; active means well fitted curve in the direction sought with a large enough effect; inconclusive means small, poorly fitted or top-dose-only effect, or another doubt; inactive means no such curve, though single readings can be large; an effect the other way counts as inactive or inconclusive;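 further: plate controls were neutral wells for no effect and buffer without enzyme for full effect; nearly all actives have a fitted effect of over 40% in size; top concentration of the series not given in the record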
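Compounds were screened in titration against cruzain (1.5 nM) with 0.01% Triton X-100 to counter colloidal aggregation. Activity was the AMC fluorescence increase over 60 s after adding 2 uM Z-FR-AMC at pH 5.5.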
Lassa entry inh: qHTS for Inhibitors of binding or entry into cells for Lassa Virus; Lassa virus pseudotype entry inhibition, cell reporter; control for the full effect not named in the record; Potency, µM (top dose mostly 37.9 µM), for the others: top-dose activity change, negative = inhibition, actives largely listed as inhibitors; 300,000 tested, 1.2% active; active means well fitted inhibition curve with a large enough effect; inconclusive means small, poorly fitted or top-dose-only effect, or effect the other way; inactive means flat fitted curve, though single readings scatter; tested in HEK293 cells; further: on the % scale 0 is the no-effect control and ±100 the full control effect; nearly all actives have a fitted effect of over 50% in size; luciferase read-out
Marburg entry inh: qHTS for inhibitors of binding or entry into cells for Marburg Virus; Marburg virus pseudotyped entry inhibition, cell reporter; control for the full effect not named in the record; about a third of the inactives were read at about 46 µM; 300,000 tested, 1.8% active; AID 540276, 2011; Potency, µM (top dose mostly 37.8 µM), inactives show at the top dose activity change, negative = inhibition, most hits filed as inhibitors; active = well fitted inhibition curve with a large enough effect; inconclusive = small, poorly fitted or top-dose-only effect, or effect the other way; inactive = flat fitted curve, though single readings scatter; tested in HEK293 cells; about a fifth of its hits are not listed in these tables; further: on the % scale 0 is the no-effect control and ±100 the full control effect; luciferase read-out
2A StopGo: High Throughput Screening for Foot and Mouth Disease Virus Antivirals; 410,000 tested, 1.2% active; Potency, µM (series often up to 57.9 µM), inactives show at the highest dose signal change, negative = less light; human cells with a luciferase reporter of 2A StopGo recoding; control for the full effect not named in the record; active = well fitted falling curve with a large enough effect; inconclusive = small, poorly fitted or top-dose-only effect; inactive = no such curve, though single readings can be large or run the other way; tested in HEK293T cells; further: on the % scale 0 is the no-effect control and ±100 the full control effect; nearly all actives have a fitted effect of over 45% in size; luciferase light after 4 h
SARS PLP yeast: qHTS of Yeast-based Assay for SARS-CoV PLP; S. cerevisiae expressing SARS-CoV PLpro, growth rescue; control for the full effect not named in the record; Potency, µM (titrated, usually from 32.9 µM), without a hit: at the highest dose activity, positive = growth rescue; 330,000 tested, 0.19% active; further: 0% is about no effect; nearly all actives have a fitted effect of over 55% in size; growth read by luminescence after 48 h
Starred values were filed as active, the others as inactive; ? = inconclusive; · = not tested or not shown; & = joins results of further samples; [ ] = dose if it differs, or a comment. Unless noted, the call rests on the fitted dose curve; in most records, active means well fitted rising curve with a large enough effect; inconclusive means small, poorly fitted or top-dose-only effect; inactive means no such curve, though single readings can be large or run the other way. Potency means the concentration at half of the fitted maximal effect.

SMILES | RE007 growth inh | Cruzain inh noDet | NS1 function inh | Cruzain inh Det | Lassa entry inh | Marburg entry inh | 2A StopGo | SARS PLP yeast
CCC(=O)c1cn(CC(=O)Nc2ccccc2)c2ccccc12 | -0.1% | · | 5.9% | · | ? | ? | -6.2% | -0.5%
N#CC(c1cccnc1)N1CCOCC1 (stereo not drawn) | 10.2% | · | -3.8% | · | · | · | -16.3% | -0.3%
COc1ccccc1[C@@H]1C(c2ccc(F)cc2)=NN(c2ccccc2)[C@H]1C(=O)N1CCOC1=O | 3.0% | ? | ? | -9.7%&-11.9% | -4.3% | -19.7% | 0.0% | -15.5%
O=C(Nc1cnc2sccn2c1=O)c1ccc(Cl)cc1Cl | 11.5% | -0.7% | 0.8% | 2.3% | ? | ? | 58.3% | 4.1%
Cc1nc2c(=O)n(C)c(=O)[nH]c2n1Cc1ccccc1 | 64.3% | 8.3% | 5.3% | 1.6% | 2.7% | 21.9% | 21.4% | -8.3%
CCN(CCNC(=O)c1ccc(C#N)cc1)c1cccc(C)c1 | 24.1% | · | 7.3% | · | · | -21.4%[46.1 µM] | -16.1% | -2.0%
CCOC(=O)c1ccc[n+](CC(=O)c2ccc(NC(=O)c3ccccc3)cc2)c1 | 5.1% | · | 16.2% | · | · | · | 7.0% | 8.4%
O=C(OCC(=O)N1CCc2ccccc21)c1ccc([N+](=O)[O-])cc1 | 17.1% | · | · | · | -4.1% | 5.1% | 7.2% | -0.2%
CCc1ccc(N(C(C)=O)C2C=CS(=O)(=O)C2)cc1 (stereo not drawn) | -15.1% | 1.2% | 0.5% | 2.4% | -1.7% | -0.1% | 0.0% | 2.7%
COc1ccc(CCN2CC(C(=O)NCCN3CCOC3=O)CCC2=O)cc1 (stereo not drawn) | 3.2% | · | 4.3% | · | -1.8% | 8.7% | -6.2% | -1.3%
C=CCn1c(Oc2cc(C)ccc2C)nc2c1c(=O)n(C)c(=O)n2C | 1.9% | -11.6% | -33.0% | -1.8% | -13.5% | -4.5% | · | 0.2%
CCN(CC)S(=O)(=O)c1cccc(C(=O)NC(C(=O)NC2=NCCS2)C(C)C)c1 (stereo not drawn) | -5.4% | -1.7% | -3.3% | 1.0% | -10.5% | -1.2% | 0.0% | 5.6%
COc1ccc(-c2noc(N3CCC(C(=O)NCc4ccc(F)cc4)CC3)n2)cc1 | 13.6% | · | 1.9% | · | · | · | -31.6% | -4.6%
COc1ccc(-c2nc3n(c(=O)c2C#N)CCCS3)cc1 | 22.7% | -27.5% | -50.7% | 1.2% | 1.8% | -1.9% | 16.1% | -22.6%
Cc1ccc(S(=O)(=O)N(C(=O)c2ccco2)c2cc3sc(=O)oc3c3ccccc23)cc1 | 7.6% | ? | 27.1% | -4.9% | ? | ? | 17.8% | 6.4%
COc1ccc(C(=O)CCN2CCN(c3ccccc3OC)CC2)cc1 | ? | · | · | · | 18.6% | -1.4%[46.1 µM] | 0.0% | -4.0%
O=C(Nc1ccc2c(c1)OCO2)c1cc(-c2ccccc2Cl)on1 | 5.9% | · | -1.8% | · | ? | ? | 7.2% | 0.3%
COc1cc2c(cc1OC)C(c1ccccc1)N(C(=O)c1ccccc1)CC2 (stereo not drawn) | 12.4% | · | -13.4% | · | · | · | -15.2% | -4.5%
CCOC(=O)c1cnc2ccc(Br)cc2c1NCCO | -8.6% | -5.4% | -1.9% | 0.2% | -24.1% | 11.2% | · | ·
O=[N+]([O-])c1ccc(N2CCN(c3ccc(O)cc3)CC2)cn1 | 49.6% | · | -2.3% | · | 4.0% | -13.7%[46.1 µM] | -11.0% | -1.6%
Cn1c(=O)c2ccccc2n(CC(=O)NC2CCCC2)c1=O | 9.1% | · | 0.1% | · | 25.4%[46.1 µM] | 28.1%[46.1 µM] | 2.2% | -9.8%
COc1cc(C(=O)Nc2ccccc2-c2nc(-c3ccc(C)cc3)no2)cc(OC)c1OC | · | 6.4% | · | -1.9% | 13.3%[46.1 µM] | -8.1%[46.1 µM] | 0.0% | ·
CC1CCCN(C(=O)COc2ccc(-c3ccccc3)cc2)C1 (stereo not drawn) | -17.8% | · | · | · | ? | ? | 14.0% | -4.4%
Cc1ccc(-n2nc(C)c3onc(C)c3c2=O)cc1 | -10.8% | · | -0.4% | · | · | · | -11.9% | 0.7%
O=C(Cc1ccccc1[N+](=O)[O-])NCC(O)c1ccc2c(c1)OCO2 (stereo not drawn) | -2.3% | · | · | · | 0.7%[46.1 µM] | 25.8% | 20.7% | ·

Looked up one by one from above (2):
SMILES | RE007 growth inh | Cruzain inh noDet | NS1 function inh | Cruzain inh Det | Lassa entry inh | Marburg entry inh | 2A StopGo | SARS PLP yeast
COc1cc(C(=O)Nc2ccccc2-c2nc(-c3ccc(C)cc3)no2)cc(OC)c1OC | · | 6.4% | · | -1.9% | 13.3%[46.1 µM] | -8.1%[46.1 µM] | 0.0% | ·
Cc1nc2c(=O)n(C)c(=O)[nH]c2n1Cc1ccccc1 | 64.3% | 8.3% | 5.3% | 1.6% | 2.7% | 21.9% | 21.4% | -8.3%

(more compounds)
SMILES | RE007 growth inh | Cruzain inh noDet | NS1 function inh | Cruzain inh Det | Lassa entry inh | Marburg entry inh | 2A StopGo | SARS PLP yeast
O=C(O)c1ccc(Nc2cnc3ccccc3n2)cc1 | 7.4% | · | -2.8% | · | 3.7% | 1.3% | 0.0% | 1.4%
Cn1cc(C(=O)N2CCN(c3ccccc3)CC2)c(=O)c2cc(S(=O)(=O)N3CCOCC3)ccc21 | -0.7% | · | -15.5% | · | · | · | -0.1% | 8.4%
CCN(CC1CCCN(CCc2cccc(F)c2)C1)C(=O)c1ccc(CSC)o1 (stereo not drawn) | -3.5% | · | 1.7% | · | 8.2% | 5.8% | 9.2% | -6.3%
COc1ccc(-c2csc3nc(C)n(-n4cccc4)c(=O)c23)cc1OC | -2.1% | 8.4% | -7.4% | -4.7% | ? | ? | · | -2.6%
CCOc1ccc(S(=O)(=O)Nc2ccc3c(c2)c(C(C)=O)c(C)n3S(=O)(=O)c2ccc(OCC)cc2)cc1 | · | ? | · | 0.1% | ? | · | -16.9% | ·
O=C(/C=C/c1ccco1)Nc1cccc2cccnc12 | 0.6% | -23.1% | 1.8% | -12.5% | 5.6% | -1.8%[46.1 µM] | 58.7%[activator] | -8.4%
CC1(C)CC(=O)C2=C(C1)NC(SCC(N)=O)=C(C#N)C21CCCCC1 | -5.5% | -10.5% | 3.8% | -1.2% | -4.4% | -10.0% | 0.0% | 3.7%
CC(C)CC(NC(=O)C(NC(=O)OC(C)(C)C)C(C)C)C(=O)N1CCCC1C(N)=O (stereo not drawn) | 0.1% | -6.9% | 5.6% | -13.3% | -5.5% | -17.2% | -20.9% | -2.5%
COC(=O)Cc1ccc(NC(=S)NCC(C)C)cc1 | 4.2% | 10.3% | 1.2% | -1.5% | 11.8% | 25.5% | 25.1% | 6.4%
CCCCC(c1nnnn1CC1CCCO1)N1CCN(Cc2ccccc2)CC1 (stereo not drawn) | -6.2% | -5.4% | -2.7% | 4.7% | -18.2% | ? | 3.8% | -6.8%
O=C(Nc1cccc(Cl)c1)c1ccc2nc(Cc3ccccc3)oc2c1 | · | -19.5% | · | -7.9% | ? | · | -9.7% | ·
CCOc1ccc2nc(NCCCNS(=O)(=O)c3ccc(C)cc3)c(C#N)cc2c1 | 15.0% | 28.1% | -11.8% | -8.0% | -23.5% | 1.9% | -10.7% | 13.4%
CCc1nn2c(=O)c(S(=O)(=O)Nc3ccc(OC)c(Cl)c3)c(C)nc2s1 | · | -19.4% | · | -4.5% | 17.5%[46.1 µM] | ? | -9.1% | ·
Cc1cnc(NC(=O)CSC(=S)N2CCOCC2)s1 | 15.5% | · | · | · | 15.7% | 7.6%[46.1 µM] | 6.2% | -3.1%
NCCc1nnc(SCc2c(F)cccc2Cl)o1 | -6.5% | -2.5% | ? | -0.7% | ? | -39.1% | 1.3% | 9.4%
COc1ccc(C2CC(c3ccccc3)=NN2C(=O)CN2CCN(Cc3ccccc3)CC2)cc1 (stereo not drawn) | -5.3% | · | · | · | ? | ? | ? | 3.6%
CCOCCCN1C(=O)CN(C2CCCCCC2)C(=O)C1c1ccc(OC)cc1 (stereo not drawn) | -1.7% | 7.3% | -1.0% | 2.1% | -3.8% | 14.4% | 20.6% | -1.0%
Oc1ccccc1-c1nc(N2CCN(Cc3ccccc3)CC2)c2ccccc2n1 | -13.1% | -20.2% | -65.2% | -0.4% | 14.3% | -7.4% | -21.7% | 1.1%
CCOC(=O)NC(=O)C(=CNc1ccc(C)cc1)C(=O)NC(=O)OCC | 16.1% | -8.9% | -15.7% | -1.3% | 3.5% | 17.6% | 1.5% | 6.4%
O=C(Cn1nc(-c2ccco2)ccc1=O)Nc1ccc(Br)cc1 | -1.8% | · | 10.2% | · | · | · | 4.8% | 2.1%
CCOc1ccc(/C=N/NC(=O)C2CC2)c(OCC)c1 | -9.2% | · | -9.6% | · | -22.7%[46.1 µM] | 7.5%[46.1 µM] | -12.2% | -0.1%
Cc1ncc(CO)c2c1Oc1nc(-c3ccc(F)cc3)nc(SCc3ccc(F)cc3Cl)c1C2 | · | 17.9% | · | -10.0% | ? | · | -4.6% | ·
COc1ccc(-c2nc(SCC(=O)Nc3ccc4c(c3)OCO4)c(-c3ccc(OC)cc3)[nH]2)cc1 | · | -13.1% | · | -13.3% | 0.2%[46.1 µM] | 6.6%[46.1 µM] | -6.7% | ·
Cc1onc(-c2ccccc2Cl)c1C(=O)Nc1ccc(-c2cn3cccnc3n2)cc1 | -1.5% | ? | ? | ? | 24.3%[14.3 µM] | 5.9% | ? | 4.6%
CN(C)C(=O)c1cc(C(=O)c2ccccc2)c[nH]1 | -9.1% | · | -0.3% | · | ? | 13.8%[46.1 µM] | 37.1%[activator] | -0.7%
